# Screening results from PubChem.
# PrP 5UTR inh: inhibition of PrP 5' UTR reporter expression; cell-based PrP 5' UTR mRNA reporter, plate reader; inhibition, % (no concentration beside the values); 340,000 compounds, 0.35% hits; AID 488862, 2010;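 active = every replicate at 50% or more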;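 note: 0 = median of the neutral control wells; tested in H4 reporter cells; numbers are from one replicate; inactives centre near -14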
# RN4220 kill: growth inhibition of S. aureus RN4220, primary screen, OD600 | 16 h | inhibition, % (test concentration not listed) | 330,000 compounds, 0.33% hits | AID 1259311, 2017;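 active = z-score of -3 or lower and OD600 up to 0.18 on both plates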;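 note: plate controls were untreated cells for no effect and reference antibiotic for full effect; stock transfer was 100 nL into about 80 µL; one replicate is shown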
# BJeLR lethal: MLPCN primary cell-based screen for lethality selective to Ras in HRASV12 cells; BJeLR (HRASV12) viability, CellTiter-Glo ATP luminescence, 48 h; reference of the scale not given here; inhibition, % (no concentration beside the values); AID 1554, 2009; 300,000 compounds, 0.17% hits;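 active = replicate mean above 50%; inconclusive = above 50% but judged a plate artefact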;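 note: 50 nL library stock added to about 25 µL; numbers are from one replicate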
# Mtb hypoxia inh: PubChem AID 1159583; M. tuberculosis hypoxia-regulated fluorescent reporter, fluorescence; fluorescence inhibition, % (no concentration beside the values); 300,000 compounds, 0.1% hits;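 active = 35 to 45% if threefold the growth effect, above 45% if 1.5-fold the growth effect; inactive = the rest, general growth blockers included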;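 note: wells of about 50 µL received 100 nL stock; 0% = vehicle wells and 100% = reference inhibitor wells; whole bacteria with a GFP reporter of the hypoxia response; strong numbers were not always called active; many hits fall short of the cut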
# ugtP null kill: growth inhibition of ugtP-null S. aureus, primary screen, RN4220 ugtP deletion, OD600. 16 h; some inactives read as strong as hits. growth inhibition, % (test concentration not listed). 330,000 compounds, 0.54% hits;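 active = z-score under -3 and OD600 up to 0.15 on both plates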;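 note: plate controls were untreated wells for no effect and antibiotic for full effect; wells of about 80 µL received 100 nL stock; the first replicate is given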
# Autofluor counter: counter-screen for toxin protease inhibitors: compound fluorescence; compound autofluorescence counterscreen, microsphere flow cytometry; stronger effect = higher value; 360,000 compounds, 3.1% hits; fluorescence intensity (concentration not given with the values); AID 624483;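 active = at least 3 SD above the mean of all compounds, about 16000 in these data; inconclusive = too few beads counted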;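 note: 100 nL of 1 mM stock went into each well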
# Mtb hypoxia inh growth: further read-out of Mtb hypoxia inh, marked with its call; growth inhibition, %; measured here: M. tuberculosis growth (absorbance);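 0% = vehicle and 100% = reference antibiotic; read after six days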
# * = called active by the depositor; ? = inconclusive; . = not tested or not shown.
No.	structure	PrP 5UTR inh	RN4220 kill	BJeLR lethal	Mtb hypoxia inh	Mtb hypoxia inh growth	ugtP null kill	Autofluor counter
1	CCCn1c(=O)c2c(nc3n2CCS3)n(C)c1=O	-19	5.3	9	8	8	3	3868
2	O=C(COC(=O)c1c(Cl)cccc1Cl)Nc1ccccc1Br	-35	8.4	-10	8	8	7	2578
3	Cc1ccc(S(=O)(=O)N2CCN(CCO)CC2)cc1-c1nnc2c3ccccc3c(C)nn12	-23	3.9	13	4	8	-5	9974
4	Cc1ccc(CNC(=O)CS(=O)(=O)c2cn(CC(=O)N3CCOCC3)c3ccccc23)cc1	6	0.3	4	-6	8	-2	5553
5	COc1ccc(C(O)=C2C(=O)C(=O)N(CCN(C)C)C2c2ccccc2)cc1Cl (stereo not given)	.	5.9	.	9	6	6	.
6	CC(=O)Oc1ccc(-c2ccc(C(=O)O)cc2)cc1	-25	0.4	-5	.	.	2	2785
7	COc1ccc(Cl)cc1NC(=O)C(OC)c1ccccc1 (stereo not given)	-30	2.5	4	7	15	3	5318
8	O=C(NCCN1CCOCC1)c1ccc([N+](=O)[O-])cc1[N+](=O)[O-]	-3	-0.7	7	.	.	-2	4042
9	Cc1ccc(Cl)cc1N1CCN(C(=O)c2cc3c(=O)n(C)c4ccccc4c3n2C)CC1	-3	-4.1	12	.	.	-4	5520
10	COc1cccc(Nc2cc(C)nc3ccccc23)c1	-29	3.2	15	-8	-13	-7	20171*
11	O=C(COC(=O)Cc1cccc(C(F)(F)F)c1)NC1CCS(=O)(=O)C1 (stereo not given)	-3	2.7	5	2	-2	5	.
12	CCOC(=O)c1c(CSc2ccc(CC)cc2)oc2ccc(O)c(CN(C)C)c12	-36	-7.8	19	8	7	-26	3229
13	CC(Oc1ccc(Br)cc1Br)C(=O)Nc1cccnc1Cl (stereo not given)	-25	5.8	.	6	12	-15	?
14	Cc1cc(NC(=O)Nc2cccc(Cl)c2)n(-c2ccccn2)n1	-10	-16	-11	-1	-3	-8	3996
15	COCCCNCCOc1cc(C(C)C)ccc1C	-25	3.1	-20	19	13	5	9388
16	COC1=CC(=O)[C@]2(C(Cl)C[C@]34C(OC)=C(OC)C(=O)C[C@]23CCN4C)C1O (stereo not given in full)	.	2.7	.	8	5	-8	.
17	CC1CCc2sc(C(=O)OCC(=O)NC(C)C)cc2C1 (stereo not given)	-13	3.2	12	-3	0	-4	3325
18	COC(=O)CCCCCNc1ccc(C(=O)OC)cc1N	-6	3.4	4	.	.	-5	2482
19	COc1cc(-c2cc(C(=O)Nc3ccc(C)c(S(=O)(=O)N4CCOCC4)c3)c3ccccc3n2)cc(OC)c1OC	10	-0.1	.	-9	13	-10	4455
20	O=C(Oc1ccc(N(C(=O)c2ccncc2)S(=O)(=O)c2cccs2)cc1)c1ccncc1	-24	1.5	-1	-6	14	-3	4244
21	CCOc1ccc(-c2cc(N3C(=O)Nc4ccccc4N3O)on2)cc1	2	2.7	-15	17	5	0	3593
22	O=C(CN(c1ccccc1)S(=O)(=O)c1ccc(F)cc1)NC1CCS(=O)(=O)C1 (stereo not given)	1	1.8	0	1	9	7	4325
23	CC1CCN(S(=O)(=O)c2ccc3c(c2)N(CC(=O)NCCCN2CCCCC2C)C(=O)CS3)CC1 (stereo not given)	-17	1.0	-2	16	8	9	6316
24	O=C(CSc1nnc(NC(=O)C2CC2)s1)NCc1cccs1	-3	-0.4	6	20	-4	3	4040
25	CCN(C(=O)COC(=O)CCCOc1ccc(Cl)cc1C)c1c(N)n(Cc2ccccc2)c(=O)[nH]c1=O	-13	9.9	.	3	-5	4	3170
26	Cc1ccc(-n2nnnc2SCn2nnc3ccccc3c2=O)c(C)c1	-2	1.7	2	7	4	0	15237
27	CCCn1c2ccccc2c2cnn(CC(=O)NCCCN3CCCCC3CC)c(=O)c21 (stereo not given)	-17	1.9	7	9	0	11	5712
28	Cc1noc(C)c1C(=O)N1CCN(c2ccccc2O)CC1	-19	1.3	.	-1	10	-1	3843
29	Cc1ccc(F)cc1NC(=O)C1CCN(c2cnccn2)CC1	-19	1.9	.	-2	-3	2	9785
30	O=C(C1CC1)N(Cc1nc2ccccc2c(=O)[nH]1)Cc1cccs1	-18	4.6	3	9	7	-3	4567
31	CCCN1C(=O)/C(=C\C=C2/Sc3ccccc3N2CCO)SC1=S	-10	-0.7	13	23	-2	-2	4758
32	Cc1nn(C)cc1CN(C)C(=O)c1cc2nc(-c3ccco3)cc(C(F)(F)F)n2n1	-30	4.8	3	-2	6	-4	2869
33	CCOC(=O)C1CCN(C(=O)C2CCN(S(=O)(=O)c3cccc4nsnc34)CC2)CC1	-42	-1.5	-4	5	9	-1	4909
34	O=C(O)c1cccc2c1C(=O)c1ccc(N3CCCC3)cc1S2(=O)=O	-16	3.8	.	14	13	3	4253
35	CCN(C(=O)CN1CCCC(C)C1)c1c(N)n(Cc2ccccc2)c(=O)[nH]c1=O (stereo not given)	-2	4.3	.	13	-2	0	2905
36	COc1cccc(CNc2ccc3c(c2)CCC3)c1	-115	0.5	-1	19	9	13	11020
37	O=C(O)CCc1nn2c3ccccc3n(Cc3ccccc3)c2nc1=O	-28	4.3	-4	-5	3	2	3599
38	c1nnc(NC2=NCCCCC2)s1	-24	-0.4	-2	2	-18	14	8746
39	CN(CCc1ccccc1)C1CCCN(S(=O)(=O)c2cccc(F)c2)C1 (stereo not given)	-9	0.1	-5	2	2	3	4231
40	Cc1cccc(C=NNC(=O)c2ccncc2)n1	.	2.9	.	.	.	1	.
41	Nc1ccc(O)cc1C(=O)OCC(=O)C12CC3CC(CC(C3)C1)C2	-17	0.5	.	.	.	-5	3491
42	COC(=O)c1ccc(/C=N/NC(=O)CC(=O)NCC(C)C)cc1	-30	.	2	.	.	.	2969
43	O=C(CSc1nnc(C2CC2)n1-c1ccccc1)Nc1ccc(N2CCOCC2)cc1	8	4.5	-3	10	3	2	?
44	CC(=O)NS(=O)(=O)c1cccnc1Nc1cccc(Cl)c1C	-6	6.7	-12	18	11	7	2101
45	COc1ccc(C(CNC(=O)C(CCSC)NC(=O)c2ccccc2Cl)N2CCOCC2)cc1 (stereo not given)	-3	-6.3	7	-6	5	-10	4795
46	Cc1cc(C)c2cc3c(ccn3C3OC[C@H](O)[C@H](O)[C@H]3O)cc2n1 (stereo not given in full)	-29	0.5	-9	.	.	3	2823
47	COc1ccc2oc(-c3ccco3)cc(=O)c2c1	-66	2.7	10	7	11	5	4982
48	Cn1nc(CC#N)c2c(=N)n(N)cnc21	-7	5.4	.	10	9	6	3714
49	COc1ccc(CNC(=O)CN2CCN(c3ccc(F)cc3)CC2)cc1	-13	2.9	-2	-11	1	10	3964
50	CCN1CCCC1CNC(=O)c1ccccc1Cl (stereo not given)	-13	-0.4	-2	.	.	13	3895
51	CC(C)(C)NC(=O)c1ccc2c(c1)C(=O)N(Cc1ccco1)C2=O	-2	-1.1	13	-4	1	3	3053
52	O=C(O)CCC(=O)Nc1sc2c(c1C(=O)NC1CCCC1)CCCC2	-7	4.3	6	5	10	4	5473
53	O=C(C1CCN(Cc2ccc(Cl)cc2)CC1)N1CCN(Cc2ccc3c(c2)OCO3)CC1	-5	2.9	-6	12	17	2	6003
54	O=C(/C=C/c1cccc([N+](=O)[O-])c1)n1cnc2ccccc21	-29	.	2	.	.	.	5882
55	CCOc1ccc(C2C(C#N)=C(N)Oc3cc(C)n(Cc4ccco4)c(=O)c32)cc1OC (stereo not given)	-1	-31	-2	1	-4	56	2506
56	COc1ccc(/C=N/Nc2nc(NCc3ccco3)nc(Nc3ccc(OC)cc3)n2)cc1	-4	.	3	.	.	.	2455
57	COc1ccc(/C=C/C(=O)c2cc(Cl)cc(Cl)c2O)c(OC)c1	0	-9.9	-16	-9	2	2	6109
58	COc1cc(C2NC(=O)NC(C)=C2C(=O)OC(C)(C)C)ccc1OCC(N)=O (stereo not given)	-1	3.7	3	12	11	-3	21970*
59	O=S(=O)(Cc1ccccc1)N1CCCc2ccccc21	-21	2.8	-1	4	8	-2	2160
60	COc1ccccc1N=Nc1[nH]c2ccc(C)cc2c1O	-23	-0.5	6	6	3	-9	2368

# (further entries)
No.	structure	PrP 5UTR inh	RN4220 kill	BJeLR lethal	Mtb hypoxia inh	Mtb hypoxia inh growth	ugtP null kill	Autofluor counter
61	CN(CC(=O)Nc1ccccc1C(F)(F)F)C(=O)CSc1nnc(N)s1	-11	2.6	.	7	9	3	2997
62	COc1ccc(N(CC(=O)Nc2ccc(F)c(F)c2)S(=O)(=O)c2c(C)[nH]c(=O)[nH]c2=O)cc1	-18	1.2	4	0	-6	6	5247
63	COc1ccc(C(=O)NNC(=O)c2cnccn2)cc1[N+](=O)[O-]	3	-2.7	-3	2	8	-3	16455*
64	CCC(=O)Nc1nc(N)n(-c2ccccc2)n1	-5	2.5	-1	8	-3	6	6610
65	O=C(NCCc1ccccc1)C1CC(=O)N(C2CCCC2)C1 (stereo not given)	-11	5.8	3	2	3	9	5099
66	Cc1onc(-c2ccccc2)c1C(=O)N(Cc1ccco1)Cc1cccs1	-2	9.0	10	3	4	1	4412
67	O=C(CCc1nnc2n(Cc3ccc(Cl)cc3)c(=O)c3ccccc3n12)NCCCN1CCOCC1	6	0.8	4	-1	4	2	4109
68	Cn1nc(-c2ccc(Cl)cc2)c2cc(C(=O)NCCCN3CCOCC3)sc21	-16	1.1	10	.	.	6	5576
69	Cc1ccc2cc(CN(CC(C)C)C(=O)C3CCCO3)c(=O)[nH]c2c1 (stereo not given)	-20	8.0	0	4	11	-9	8755
70	COCCn1c(C)cc(C(=O)COC(=O)/C=C/c2cccc(OC)c2)c1C	-13	-2.5	-1	1	2	-6	2505
71	CN(C)S(=O)(=O)c1ccc(C(=O)OCC(=O)c2ccc(OC(F)F)cc2OC(F)F)cc1	-11	-11	0	.	.	1	4059
72	CCOC(=O)N1CCC(=NNC(N)=O)CC1	-27	2.4	2	5	4	-1	2036
73	[O-][N+]12CC[N+]([O-])(CC1)c1ccccc12	-17	-2.3	7	.	.	12	2687
74	Cc1cc(Cl)ccc1N(CC(=O)N=Nc1c(O)[nH]c2ccccc12)S(C)(=O)=O	-10	3.5	2	10	5	5	7768
75	CNC(=O)NC(=O)CSc1ccc(NC(C)=O)cc1	-20	1.1	-8	8	9	-1	9274

# A second format for some results above.
# Below each compound: PrP 5UTR inh | RN4220 kill | BJeLR lethal | Mtb hypoxia inh | Mtb hypoxia inh growth | ugtP null kill | Autofluor counter
[74] Cc1cc(Cl)ccc1N(CC(=O)N=Nc1c(O)[nH]c2ccccc12)S(C)(=O)=O
    -10 | 3.5 | 2 | 10 | 5 | 5 | 7768
[75] CNC(=O)NC(=O)CSc1ccc(NC(C)=O)cc1
    -20 | 1.1 | -8 | 8 | 9 | -1 | 9274
[72] CCOC(=O)N1CCC(=NNC(N)=O)CC1
    -27 | 2.4 | 2 | 5 | 4 | -1 | 2036
[69] Cc1ccc2cc(CN(CC(C)C)C(=O)C3CCCO3)c(=O)[nH]c2c1 (stereo not given)
    -20 | 8.0 | 0 | 4 | 11 | -9 | 8755
[65] O=C(NCCc1ccccc1)C1CC(=O)N(C2CCCC2)C1 (stereo not given)
    -11 | 5.8 | 3 | 2 | 3 | 9 | 5099

# Remaining list, next part.
No.	structure	PrP 5UTR inh	RN4220 kill	BJeLR lethal	Mtb hypoxia inh	Mtb hypoxia inh growth	ugtP null kill	Autofluor counter
76	COc1ccccc1NC(=O)/C(=C/c1ccncc1)NC(=O)c1ccccc1	-19	2.9	2	-5	-5	5	3977
77	CN1CCN(C(=S)NC(=O)c2ccc(Br)cc2)CC1	-5	2.1	-9	7	0	5	4575
78	CSc1nnc(NC(=O)c2ccc(S(=O)(=O)N3CCOCC3)cc2)s1	-19	6.8	-6	11	4	5	5676
79	CCOC(=O)C1CCN(c2ncnc3c2cnn3C)CC1	1	1.0	-2	11	2	3	3251
80	Cc1nn(CC(=O)Nc2ccccc2)c(=O)c2ccccc12	-7	4.4	1	.	.	1	.
81	Cc1ccc(C(=O)Nc2cc(Cl)ccc2-n2cncn2)o1	-5	6.5	-11	9	2	-6	5289
82	CC(C)(C)c1cc(CCC(=O)NCCc2ccccn2)cc(C(C)(C)C)c1O	-8	5.9	-1	8	1	-1	5903
83	COC(=O)Cn1cc(C=C2C(=O)N(C)C(=O)N(C)C2=O)c2ccccc21	.	2.1	-1	6	-2	10	.
84	COc1ccc(NC(=O)CN2CCN(CC(=O)Nc3ccc(OC)cc3)CC2)cc1	-7	2.8	-5	16	7	4	3332
85	O=C1CSC2(CN3CCC2CC3)N1 (stereo not given)	-6	-10	-9	20	6	-6	2946
